High-throughput results as filed in PubChem BioAssay.
Polio RdRp inh = inhibitors of poliovirus RNA polymerase binding and polymerization. P03300. poliovirus polymerase elongation, fluorescence polarization; active compounds read low. % elongation, % (compound at 16.7 µg/mL). 0.66% of 150,000 active; in the data active = % elongation below about 90%; also: some results filed as inactive read as strong as hits
Mtb MenB inh = blocks the Mycobacterium tuberculosis MenB enzyme | P9WNP5 | inhibition, %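 (about 12 µg/mL by stock and volumes)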 | 0.43% of 100,000 active | MenB enzyme assay, absorbance read-out; some hits fall short of the stated cut;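 active = mean of two replicates above 30%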;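 also: 0% = no compound and 100% = wells with inactive enzyme; the first replicate is given; strong numbers were not always called active; inactives centre near -10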
Target sequence (P9WNP5 whole entry, looked up): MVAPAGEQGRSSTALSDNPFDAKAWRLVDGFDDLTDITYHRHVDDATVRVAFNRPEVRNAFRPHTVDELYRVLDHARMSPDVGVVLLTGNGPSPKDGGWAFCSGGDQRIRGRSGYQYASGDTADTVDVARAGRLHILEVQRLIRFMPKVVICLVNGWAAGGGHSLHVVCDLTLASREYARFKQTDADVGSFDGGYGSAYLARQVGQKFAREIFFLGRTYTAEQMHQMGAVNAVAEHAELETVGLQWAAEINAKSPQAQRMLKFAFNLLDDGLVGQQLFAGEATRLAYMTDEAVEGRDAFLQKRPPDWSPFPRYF
Mtb MbtI inh = MbtI salicylate synthase inhibition; purified MbtI enzyme, fluorescence intensity read-out; P9WFX0; inhibition, %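 (about 17 µg/mL by stock and volumes)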; AID 493033; 0.89% of 100,000 active;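 active = above 50% in both replicates, above 80% if mildly self-fluorescent; inactive = the rest, strongly fluorescent compounds included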;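 also: 0% = mean of negative and 100% = mean of positive controls; one replicate is shown; some compounds called inactive have numbers as strong as hits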
Target sequence (P9WFX0 whole entry, looked up): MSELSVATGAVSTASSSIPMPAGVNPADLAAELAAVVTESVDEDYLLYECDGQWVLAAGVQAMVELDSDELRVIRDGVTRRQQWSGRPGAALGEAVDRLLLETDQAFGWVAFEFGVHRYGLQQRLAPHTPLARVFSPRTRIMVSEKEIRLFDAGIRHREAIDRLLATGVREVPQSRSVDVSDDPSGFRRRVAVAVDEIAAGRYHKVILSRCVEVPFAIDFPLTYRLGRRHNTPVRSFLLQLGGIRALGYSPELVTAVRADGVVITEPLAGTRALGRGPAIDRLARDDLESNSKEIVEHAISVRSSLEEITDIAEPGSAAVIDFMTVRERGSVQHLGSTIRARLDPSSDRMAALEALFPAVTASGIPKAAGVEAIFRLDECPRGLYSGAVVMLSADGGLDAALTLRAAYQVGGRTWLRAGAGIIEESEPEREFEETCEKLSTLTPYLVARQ
Polio RdRp inh intensity = further read-out of Polio RdRp inh, marked with its call; % elongation; measured here: total intensity read-out; formula for this scale not given here;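 total fluorescence in place of polarization; lower means less elongation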
An asterisk follows results filed as active; i = inactive; · = no result given.

item | structure | Mtb MbtI inh | Mtb MenB inh | Polio RdRp inh | Polio RdRp inh intensity
1 | COc1ccc(CC(NC(C)=O)C(=O)N2CCN(C(=O)Nc3ccc(C#N)cc3)CC2)cc1 (configuration not stated) | -2 | -9 | 102 | 104
2 | CCN(CC)S(=O)(=O)c1ccc(NC(C)CCc2ccccc2)nc1 (configuration not stated) | 2 | -26 | 105 | 109
3 | COC(=O)c1cn(CC(=O)c2cc(C)n(C)c2C)c2ccccc12 | 6 | -7 | 102 | 105
4 | COC(=O)c1cc(-c2c(C)oc3cc(OC(C)=O)ccc3c2=O)c(C)o1 | -26 | -14 | 107 | 113
5 | COc1cc(-c2cc(N)n(S(=O)(=O)c3ccccc3)n2)cc(OC)c1OC | -6 | 7 | 99 | 104
6 | O=C(NC(Cc1ccccc1)C(=O)N1CCC1)c1ccccc1 (configuration not stated) | 3 | -19 | 102 | 109
7 | COc1cc2[nH]c(=S)nc(NC3CCCCCC3)c2cc1OC | 17 | -32 | 100 | 102
8 | CCOc1ccc(NC(=O)CCNC(=O)c2cn(-c3cccc(OC)c3)c(=O)c3ccccc23)cc1 | -22 | -1 | 102 | 102
9 | O=C(Cn1ncc2c(=O)oc3ccccc3c21)N1CCCc2ccccc21 | 8 | -11 | 103 | 106
10 | O=S(=O)(Nc1ccc(F)cc1)c1ccc(-n2cccn2)cc1 | -9 | -9 | 105 | 103
11 | Cc1[nH]n(-c2ccccc2)c(=O)c1/C=C1\SC(=S)N(Cc2ccccc2)C1=O | · | -1 | 103 | 108
12 | COc1cccc(CNc2ncc(-c3ccccc3)n2C)c1 | 82 | -18 | 103 | 102
13 | Cc1n[nH]c(C)c1NC(=O)CSc1ccc(F)cc1 | 26 | 0 | 108 | 107
14 | COc1ccc(-c2nnc(SCC(=O)c3ccc4c(c3)NC(=O)CO4)o2)cc1 | -17 | 9 | 102 | 106
15 | Cc1c(C#N)c(/N=C/c2c(O)[nH]c(=O)[nH]c2=O)n(C2CCCCC2)c1C | -1 | -32 | 129 | 157
16 | CC(Nc1nc(C(C)(C)C)cs1)=C(C#N)C#N | 22 | -4 | 100 | 106
17 | NC(=O)COC(=O)CSc1cccc2cccc(Cl)c12 | -7 | · | 100 | 107
18 | CC1(C)OC(=O)C(=CNc2ncccn2)C(=O)O1 | 29 | -2 | 102 | 102
19 | C=CCn1c(-c2ccccc2)csc1=Nc1ccc(O)cc1 | 10 | -18 | 100 | 100
20 | CCCNC(=O)CCc1nnc2ccc(N3CCCC3)nn12 | 0 | -2 | 104 | 101
21 | c1ccc(CSc2nnc(-c3ccccc3)o2)cc1 | 13 | -25 | 103 | 105
22 | O[C@@]1(c2ccccc2)C2C3CC4C5C3C1C5C(F)(F)C42 (some centres not stated) | 8 | 9 | 101 | 103
23 | Cc1cc(C)c(-n2c(SCC(=O)c3ccc(C#N)cc3)n[nH]c2=O)c(C)c1 | -2 | -22 | 106 | 118
24 | COc1ccc(CN2CCNCC2)cc1 | -7 | -38 | 105 | 102
25 | O=C(O)C(=Cc1ccc(-c2cccc(C(F)(F)F)c2)o1)C(=O)O | -89 | 16 | 100 | 101
26 | Cc1cc(=O)[nH]c(=O)[nH]1 | 15 | 4 | 107 | 106
27 | O=S(=O)(Nc1cccnc1)c1ccc(Oc2ccccc2)cc1 | -5 | -7 | 104 | 104
28 | COc1cc(/C=N/N(C)C)ccc1OC(=O)c1cccs1 | 14 | -23 | 101 | 97
29 | CCOc1ccc(N2C(=O)/C(=C/c3ccc(OC)c(O)c3)N(C)C2=S)cc1 | 27 | -167 | 104 | 104
30 | COc1ccc(NS(=O)(=O)Cc2ccccc2)cc1 | · | -15 | 107 | 109

The closing 7 entries of the part before lead into the next.
item | structure | Mtb MbtI inh | Mtb MenB inh | Polio RdRp inh | Polio RdRp inh intensity
24 | COc1ccc(CN2CCNCC2)cc1 | -7 | -38 | 105 | 102
25 | O=C(O)C(=Cc1ccc(-c2cccc(C(F)(F)F)c2)o1)C(=O)O | -89 | 16 | 100 | 101
26 | Cc1cc(=O)[nH]c(=O)[nH]1 | 15 | 4 | 107 | 106
27 | O=S(=O)(Nc1cccnc1)c1ccc(Oc2ccccc2)cc1 | -5 | -7 | 104 | 104
28 | COc1cc(/C=N/N(C)C)ccc1OC(=O)c1cccs1 | 14 | -23 | 101 | 97
29 | CCOc1ccc(N2C(=O)/C(=C/c3ccc(OC)c(O)c3)N(C)C2=S)cc1 | 27 | -167 | 104 | 104
30 | COc1ccc(NS(=O)(=O)Cc2ccccc2)cc1 | · | -15 | 107 | 109
31 | COCc1cc(C)c2c(n1)sc1c2nc(C)n2c3ccccc3nc12 | · | -17 | 97 | 98
32 | COc1ccc(OCCn2c(=O)oc3ccccc32)cc1 | -2 | -5 | 102 | 104
33 | CC(=O)Nc1ccc(NC(NC(=O)c2ccco2)C(=O)c2ccc(Cl)cc2)cc1 (configuration not stated) | -2 | -63 | 105 | 101
34 | Brc1ccc(-c2ccc(C3CCCCC3)cn2)cc1 | · | -25 | 112 | 100
35 | O=C(CSc1nnc(-c2ccccc2)o1)Nc1ccccc1 | -4 | 2 | 99 | 101
36 | C=CCNC(=O)CCn1c(=O)sc2ccccc21 | -11 | -16 | 102 | 103
37 | CCN(Cc1ccccc1)Cc1nnnn1CCOC | -5 | -34 | 104 | 102
38 | CCCC1(CCC)NC(=O)N(CCOc2ccc(C)cc2)C1=O | -2 | -34 | 104 | 109
39 | CN1CCC(N(C)C(=O)c2cn(-c3ccccc3)nc2-c2cccs2)CC1 | -6 | · | 101 | 106
40 | Cc1ncc(CO)c2c1Oc1[nH]c(-c3ccccc3)nc(=S)c1C2 | 68 | -4 | 101 | 101
41 | O=C1CSC(c2ccc(Cl)cc2)N1Nc1nc(Nc2ccccc2)nc(N2CCCCC2)n1 (configuration not stated) | 10 | -21 | 100 | 101
42 | COc1cccc(C(=O)OCC(=O)N2c3ccccc3CC2C)c1 (configuration not stated) | -8 | -21 | 100 | 99
43 | Cc1ccccc1C(=O)NC1CCN(CC(=O)NC(C)(C)C)CC1 | -5 | -18 | 105 | 102
44 | O=C(Oc1ccc2oc(-c3ccco3)cc(=O)c2c1)c1ccccc1 | 36 | 9 | 102 | 100
45 | Cc1ccccc1NC(=O)/C=C/c1ccc2c(c1)OCO2 | 2 | 4 | 102 | 99
46 | CC1CCCCN1C(=O)c1ccccc1F (configuration not stated) | -18 | -8 | 105 | 104
47 | O=C1CSC(c2ccccc2O)N1Cc1ccccc1 (configuration not stated) | -8 | -14 | 100 | 95
48 | CN(C)S(=O)(=O)c1cccc(C(=O)N2CCN(c3ccccc3)CC2)c1 | -2 | -5 | 99 | 107
49 | CCN(CC)S(=O)(=O)c1ccc(Cl)c(C(=O)N2c3ccccc3Sc3ccccc32)c1 | · | -22 | 105 | 102
50 | O=C(CC1(O)C(=O)N(Cc2ccccc2)c2ccccc21)c1ccc(Br)s1 (configuration not stated) | 3 | · | 101 | 98
51 | COc1cc(C2C(C#N)=C(SCC(=O)c3cc4ccccc4o3)NC3=C2C(=O)CC(C)(C)C3)cc(OC)c1OC (configuration not stated) | -4 | -21 | 104 | 106
52 | Cc1ccc(CNC(=O)C2CCN(S(=O)(=O)N3CCC4(CC3)OCCO4)CC2)cc1 | -18 | -32 | 102 | 101
53 | CN(Cc1nc2ccccc2n1C)S(=O)(=O)c1ccc(F)cc1 | -13 | 0 | 105 | 102
54 | Cc1cc(C)c2c(=O)n(CC(=O)NC(C)c3ccccc3)sc2n1 (configuration not stated) | 89 | -22 | 103 | 95
55 | Cc1oc(-c2ccccc2F)cc1CO | 54 | -18 | · | ·
56 | Cc1cc2nnc(SCC(=O)NCC(C)C)n2c2ccccc12 | -2 | · | 103 | 107
57 | CC1CCCC(C)N1S(=O)(=O)c1ccc(NC(=O)c2ccccc2C(=O)N2CCOCC2)cc1 (configuration not stated) | i | -2 | 103 | 103
58 | CCOC(=O)C(C)n1cnc2c(cnn2-c2ccc(F)cc2)c1=O (configuration not stated) | 10 | -16 | 104 | 104
59 | CC1CCc2cc(F)cc3c(O)c(C(=O)Nc4ccccn4)c(=O)n1c23 (configuration not stated) | · | -7 | 100 | 98
60 | CCOC(=O)C1=C(CSc2nnc3n(-c4ccccc4)c(=O)c4ccccc4n23)NC(=O)NC1C (configuration not stated) | 15 | -19 | 100 | 106

2 of these compounds, set out differently:
[1] COc1ccc(CC(NC(C)=O)C(=O)N2CCN(C(=O)Nc3ccc(C#N)cc3)CC2)cc1 (configuration not stated)
- Mtb MbtI inh: -2
- Mtb MenB inh: -9
- Polio RdRp inh: 102
- Polio RdRp inh intensity: 104

[2] CCN(CC)S(=O)(=O)c1ccc(NC(C)CCc2ccccc2)nc1 (configuration not stated)
- Mtb MbtI inh: 2
- Mtb MenB inh: -26
- Polio RdRp inh: 105
- Polio RdRp inh intensity: 109

6 records drawn at random from those above, as already listed:
item | structure | Mtb MbtI inh | Mtb MenB inh | Polio RdRp inh | Polio RdRp inh intensity
35 | O=C(CSc1nnc(-c2ccccc2)o1)Nc1ccccc1 | -4 | 2 | 99 | 101
39 | CN1CCC(N(C)C(=O)c2cn(-c3ccccc3)nc2-c2cccs2)CC1 | -6 | · | 101 | 106
58 | CCOC(=O)C(C)n1cnc2c(cnn2-c2ccc(F)cc2)c1=O (configuration not stated) | 10 | -16 | 104 | 104
34 | Brc1ccc(-c2ccc(C3CCCCC3)cn2)cc1 | · | -25 | 112 | 100
36 | C=CCNC(=O)CCn1c(=O)sc2ccccc21 | -11 | -16 | 102 | 103
54 | Cc1cc(C)c2c(=O)n(CC(=O)NC(C)c3ccccc3)sc2n1 (configuration not stated) | 89 | -22 | 103 | 95

Additional structures follow:
item | structure | Mtb MbtI inh | Mtb MenB inh | Polio RdRp inh | Polio RdRp inh intensity
61 | COc1ccc(C2NC(=O)NC3=C2C(=O)CCC3)cc1 (configuration not stated) | -2 | 2 | 103 | 105
62 | CN(C)C(=O)/C=C/c1cn(-c2ccccc2)nc1-c1cc2ccccc2o1 | -9 | -55 | 101 | 105
63 | CCCSc1nc2sc3c(c2c(=O)[nH]1)C(C)CCC3 (configuration not stated) | -7 | 1 | 100 | 103
64 | CCn1nc(C)cc1C(=O)n1nc(C)c(Sc2ccc(C(F)(F)F)cn2)c1C | 5 | -6 | 103 | 106
65 | COc1ccccc1N(C(C)=O)C1SC(=O)N(c2ccccc2)C1=O (configuration not stated) | -6 | 3 | 102 | 102
66 | O=Nc1c(O)n2c3c(cccc13)CCC2 | 3 | -81 | 102 | 101
67 | CN(C)c1nc(N)nc(Cn2cnc3sc4c(c3c2=O)CCCC4)n1 | -3 | -57 | 102 | 102
68 | CNC(=O)NC(=O)CSc1nnc(-c2ccncc2)n1Cc1ccccc1 | -7 | 8 | 106 | 111
69 | O=C(O)CSc1c2c(nc3cc(C(=O)N4CCOCC4)ccc13)CCCC2 | 5 | 4 | 101 | 103
70 | COc1ccc(NC(=O)Cn2c(=O)n(Cc3ccco3)c(=O)c3ccc(C(=O)NC4CCCC4)cc32)cc1 | -6 | -4 | 99 | 106
71 | Cc1cc(-c2csc(CC#N)n2)c(C)n1Cc1ccco1 | 10 | 5 | 110 | 108
72 | O=C1c2ccccc2NC(c2cccs2)N1c1ccc2c(c1)OCCO2 (configuration not stated) | -54 | -13 | 104 | 106
73 | O=C(O)CCCC(=O)Nc1ccccc1 | -2 | 0 | 102 | 108
74 | Cc1ccc(NC(=O)C(C)C(=O)Nc2ccc(C)cc2)cc1 | -6 | -16 | 106 | 104
75 | CC(C)CCNc1ncc2c(n1)CC(c1ccccc1Cl)CC2=O (configuration not stated) | 9 | 6 | 101 | 103
76 | COc1ccc(OC)c(C2c3cccn3CCN2C(=S)NC(C)(C)C)c1 (configuration not stated) | -6 | -28 | 102 | 108
77 | O=C(NN1C(=O)CSC1c1ccco1)c1ccc(O)cc1 (configuration not stated) | · | -13 | 101 | 110
78 | O=C1CCCN1CCCNc1nsc2ccccc12 | 101 | -64 | · | ·
79 | COc1nc(-c2ccccc2)nc(C)c1CC(=O)O | 2 | -2 | 102 | 103
80 | COC(=O)C1=C(C)NC(C)=C(C(=O)OC)C1C(=O)OCC(=O)N1CCN(C(C)=O)CC1 | -7 | -23 | 103 | 106
81 | c1ccc2c(c1)nc1n2CCSC1 | -1 | -6 | 106 | 109
82 | CN1CCC(N(C)Cc2ccccc2)CC1 | -5 | -13 | 98 | 99
83 | C=CCNc1cc(C)nc2nncn12 | 1 | 5 | 102 | 100
84 | CCOC(=O)Cn1nnc(-c2ccc(OCc3ccccc3F)cc2)n1 | · | -16 | 109 | 112
85 | CC1(C)CC2CC(C)(CN2S(=O)(=O)c2ccc(F)cc2F)C1 (configuration not stated) | -11 | · | 100 | 101
86 | O=C(Nc1cccc(C(F)(F)F)c1)Nc1ccc2[nH]c(=O)[nH]c2c1 | -6 | 3 | 104 | 103
87 | O=C(COc1ccc2ccccc2c1Br)NCCC1=CCCCC1 | · | -26 | 104 | 108
88 | COc1cc(C)c(Cl)cc1S(=O)(=O)N(C)C | 5 | -20 | 101 | 101
89 | CCOC(=O)c1cnn2c(C(F)(F)F)cc(-c3ccc(OC)cc3)nc12 | · | 2 | 106 | 102
90 | CC(NC(=O)CSc1ccccn1)c1ccc2c(c1)OCO2 (configuration not stated) | 22 | -10 | 108 | 111
91 | O=C(c1ccc2c(c1)OCO2)N1CCN(C2c3ccccc3-c3ccccc32)CC1 | -11 | -7 | 101 | 98
